Assay outcomes deposited in PubChem BioAssay by National Center for Advancing Translational Sciences (NCATS).
VDR inh = Inhibitors of the vitamin D receptor (VDR): qHTS; Vitamin D3 receptor (Homo sapiens), P11473; VDR-SRC2-3 peptide fluorescence polarization, 2 h; Potency, µM, for inactives: max response, negative = inhibition, actives largely listed as inhibitors; actives 0.93% (n = 400,000); AID 504847, 2011; active means well fitted inhibition curve with a large enough effect; inconclusive means small, poorly fitted or top-dose-only effect, or another doubt; inactive means no such curve, though single readings can be large or run the other way; further: series mostly up to about 120 µM
Target sequence (P11473 whole entry, looked up): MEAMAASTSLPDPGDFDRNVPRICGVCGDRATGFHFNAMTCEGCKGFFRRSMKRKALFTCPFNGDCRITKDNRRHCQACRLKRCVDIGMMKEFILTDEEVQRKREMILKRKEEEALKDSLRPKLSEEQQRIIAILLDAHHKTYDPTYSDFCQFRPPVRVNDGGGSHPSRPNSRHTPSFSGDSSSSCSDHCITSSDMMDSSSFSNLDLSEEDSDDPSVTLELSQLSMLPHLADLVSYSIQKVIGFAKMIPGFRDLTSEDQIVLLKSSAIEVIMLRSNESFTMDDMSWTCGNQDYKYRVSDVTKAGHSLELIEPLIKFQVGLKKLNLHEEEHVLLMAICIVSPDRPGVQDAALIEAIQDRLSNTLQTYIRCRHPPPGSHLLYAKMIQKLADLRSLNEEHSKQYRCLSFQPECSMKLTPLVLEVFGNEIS
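Reagent solutions, kept cold and dark, are dispensed first; compounds are then pinned in at 23 nl, plates briefly spun, and incubated 2 h at ambient temperature. Inhibition of VDR–SRC2-3 peptide binding is read by fluorescence polarization.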
* marks the source's active call; other numbers are inactive results; [ ] = dose if it differs, or a comment. On the % scale 0 is the no-effect control and ±100 the full control effect; potency means the concentration at half of the fitted maximal effect. Not all compounds are listed; count on the stated rates, not on these rows.

`CC(=O)c1ccc(NC(=O)C2CCN(c3nnc(C)c4c(C)n(-c5ccccc5)nc34)CC2)cc1` gave VDR inh -3%.
`O=C(CSc1nnc(-c2cccnc2)n1-c1ccccc1)Nc1ccccc1` gave VDR inh 4%.
For CCOc1ccc(NC(=O)CSc2nc(N)c(-c3ccccc3)c(=O)[nH]2)cc1 the results were VDR inh -4%.
O=C(NC1CCCCC1)C(c1ccc(F)cc1)N(Cc1ccccc1)C(=O)CN1C(=O)c2ccccc2S1(=O)=O (centres undefined) was read as VDR inh 4%.
`COc1ccc(C)cc1N(C)C(=O)c1c(C)oc2ncnc(N3CCOCC3)c12` gave VDR inh -7%.
For CCc1cccc(NS(=O)(=O)c2ccc3c(c2)CCC(=O)N3)c1 the results were VDR inh -8%.
Screening CCC(C)NC(=O)CN1C(=O)c2cccnc2Oc2ccc(C)cc21 (centres undefined) returned VDR inh 20%.
`Cc1cc[n+](C(C)C(=O)c2ccc(-c3ccccc3)cc2)cc1` (centres undefined) gave VDR inh 11%.
`O=C(NCc1ccc(F)cc1Cl)C1CCN(S(=O)(=O)N2CCCCC2)CC1` gave VDR inh -5%.
For COc1ccc(N(CC(=O)NCc2ccc3c(c2)OCO3)S(=O)(=O)c2ccc(O)c(C(=O)O)c2)cc1 the results were VDR inh -17%.
COc1ccc(/C=C/c2c([N+](=O)[O-])c(=O)n(C)c(=O)n2C)cc1 was read as VDR inh 6%.
`O=C(NCc1cccnc1)c1ccc2c(c1)OCO2` gave VDR inh -13%.

Reprinted at random: two entries already listed.
`O=C(CSc1nnc(-c2cccnc2)n1-c1ccccc1)Nc1ccccc1` gave VDR inh 4%.
For CCOc1ccc(NC(=O)CSc2nc(N)c(-c3ccccc3)c(=O)[nH]2)cc1 the results were VDR inh -4%.

Other structures follow.
`NS(=O)(=O)c1ccc(N/N=C/c2ccncc2)cc1` gave VDR inh 18%.
`S=c1[nH]ccn1-c1ccc(Cl)cc1` gave VDR inh -16%.
Screening O=C(O)c1ccc(NC(=S)NC(NC(=O)c2ccco2)C(Cl)(Cl)Cl)cc1 (centres undefined) returned VDR inh -1%.
O=C(NCCc1ccccc1)C1=COCCO1 was read as VDR inh 15%.
Screening CN(C)[C@@H]1C(=O)C(C(N)=O)=C(O)[C@]2(O)C(=O)C3=C(O)c4c(O)ccc(Cl)c4[C@H](O)[C@H]3C[C@@H]12 returned VDR inh inconclusive.
For Cc1ccc(SCC(=O)Nc2ccc(N3CCN(C)CC3)c(F)c2)cc1 the results were VDR inh -2%.
Screening CCc1noc(C)c1C(=O)OC(C)C(=O)Nc1ccc(Cl)cn1 (centres undefined) returned VDR inh -9%.
Screening CN(Cc1cn[nH]c1-c1ccc2c(c1)OCO2)C1CCOCC1 returned VDR inh 15%.
O=C(COc1cccc(C(F)(F)F)c1)Nc1ccccc1N1CCCCC1 was read as VDR inh -10%.
`COc1ccc(NC(=O)c2ccc(-c3ccccc3C(F)(F)F)o2)cc1` gave VDR inh -29%.
COc1ccc(CNC(=O)CN(C(=O)c2csnn2)c2cccc3c2CCCC3)cc1 was read as VDR inh 14%.
For CC(C)CNC(=O)C1CCN(CC2CCCCC2)CC1 the results were VDR inh 10%.
`Cc1nn(-c2ccccc2)c(C)c1NC(=O)COC(=O)c1ccc(NC(=O)CC#N)cc1` gave VDR inh -2%.
`CN(C)CCCNC(CC(=O)Nc1cccc([N+](=O)[O-])c1)C(=O)O` (centres undefined) gave VDR inh 2%.
O=C(CNC(=O)c1cccs1)NCC(=O)OCC(=O)c1ccc([N+](=O)[O-])cc1 was read as VDR inh -7%.
O=C(CSc1nnc(-c2ccccc2)o1)NC(=O)Cc1ccccc1 was read as VDR inh -10%.
`COC(=O)CNC(c1ccccc1)c1cc(C)ccc1NC(=O)CNC(=O)OCc1ccccc1` (centres undefined) gave VDR inh 2%.
Screening COc1ccc(NC(=O)Cn2c(=O)n(-c3cccc(C)c3)c(=O)c3c2c2cc(C)ccc2n3C)cc1Cl returned VDR inh 10%.
O=c1[nH]c(=O)c2[nH]c(=S)n(-c3ccccc3)c2[nH]1 was read as VDR inh -6%.
For CC(C)n1cnc2c(N(C)c3cccc(Cl)c3)nc(N(CCO)CCO)nc21 the results were VDR inh 9%.
COc1cc2c(cc1NC(=O)/C=C/c1ccccc1)oc1ccccc12 was read as VDR inh 7%.
`CCc1cc2c(NC(C(=O)O)C(C)C)ncnc2s1` (centres undefined) gave VDR inh -8%.
For COc1ccc(OC)c(NC(=O)C(=O)NCCC2=CCCCC2)c1 the results were VDR inh -4%.
CCOC(=O)c1cnc2c(cnn2C)c1NCCCn1ccnc1 was read as VDR inh -9%.

Compounds listed so far that have a COOH group, in the order listed:
For COc1ccc(N(CC(=O)NCc2ccc3c(c2)OCO3)S(=O)(=O)c2ccc(O)c(C(=O)O)c2)cc1 the results were VDR inh -17%.
Screening O=C(O)c1ccc(NC(=S)NC(NC(=O)c2ccco2)C(Cl)(Cl)Cl)cc1 (centres undefined) returned VDR inh -1%.
`CN(C)CCCNC(CC(=O)Nc1cccc([N+](=O)[O-])c1)C(=O)O` (centres undefined) gave VDR inh 2%.
`CCc1cc2c(NC(C(=O)O)C(C)C)ncnc2s1` (centres undefined) gave VDR inh -8%.

The results go on:
Screening O=C(N/N=C/c1ccc(-c2cccc(C(F)(F)F)c2)o1)c1ccccc1O returned VDR inh -9%.
For N#CCCn1cc(/C=N/NC(=O)c2ccncc2)c(-c2ccc(F)cc2)n1 the results were VDR inh -5%.
`CCCCn1c(N)c(N(CC(C)C)C(=O)CC2CCCCC2)c(=O)[nH]c1=O` gave VDR inh 2%.
O=[N+]([O-])c1ccccc1S(=O)(=O)N1CCN(CC2CC3C=CC2C3)CC1 (centres undefined) was read as VDR inh 2%.
CCC(=NNC(=O)c1cccc(S(=O)(=O)N2CCOCC2)c1)c1ccccc1 was read as VDR inh 0%.
For CC(Sc1nnnn1-c1ccccc1)C(=O)Nc1ccccc1-c1ccccc1 (centres undefined) the results were VDR inh -25%.
For CCN(CC)CCCCN1c2ccccc2Sc2ccccc21 the results were VDR inh -2%.
`COc1cccc(-c2nc(CS(=O)(=O)CC(=O)Nc3ccccc3Br)c(C)o2)c1` gave VDR inh 1%.
Screening Clc1nc2ccccc2cc1-c1nnn(-c2ccccc2Br)n1 returned VDR inh -30%.
For CN(C)c1nc(=S)nc(NCc2ccccc2)[nH]1 the results were VDR inh 4%.
CC(C)N1CCN(CC#Cc2ccccc2)CC1CCO (centres undefined) was read as VDR inh -4%.
Cn1nc(C(=O)NCCc2ccc(Cl)cc2)c2c1-c1ccccc1S(=O)(=O)C2 was read as VDR inh -17%.
For Cc1cccc(C)c1NC(=S)N(CCN1CCCCCC1)Cc1ccco1 the results were VDR inh -13%.
`COc1ccc(/C=C/C(=O)OCC(=O)N2CCCCCC2)c(OC)c1` gave VDR inh 24%.
`O=C(Nc1cccc(-c2nnc(-c3ccco3)o2)c1)C(c1ccccc1)c1ccccc1` gave VDR inh 10%.
Screening O=S1(=O)CCOC[C@H](Cc2ccccc2)N1Cc1ccccc1 returned VDR inh -13%.
Cc1ccc(NC(=O)c2sccc2C)nc1 was read as VDR inh 5%.
`COC(=O)CSc1ccsc1C(=O)O` gave VDR inh -11%.
CCN(CC)c1ccc(/C=N/N2CCN(Cc3ccc(C)cc3)CC2)c(O)c1 was read as VDR inh inconclusive.
COc1cc(-c2nc(-c3ccccc3)c(-c3cc([N+](=O)[O-])ccc3C)[nH]2)cc(OC)c1OC was read as VDR inh 5%.
For CC(=O)NCCCOc1ccc([N+](=O)[O-])cc1Cl the results were VDR inh 12%.
CCOC(=O)c1sc2nc(SCC#N)n(CC3CCCO3)c(=O)c2c1C (centres undefined) was read as VDR inh 15%.
For N#CC1(c2cccc(Br)c2)C(=O)Nc2ccccc21 (centres undefined) the results were VDR inh 12%.
For CNC(=O)c1[nH]cnc1C(=O)NCC(=O)OC(C)(C)C the results were VDR inh -2%.
Screening OCCO returned VDR inh 15%.
NC(=O)c1ccc(CN2CCc3ccccc3C2)cc1 was read as VDR inh -15%.
For O=C(CCn1c(=O)c2cccn2c2cccnc21)N1CCN(c2ccc(F)cc2)CC1 the results were VDR inh 19%.
Cc1ccc(Nc2sc(C(=O)c3ccc(F)cc3)c(N)c2S(=O)(=O)c2ccc(C)cc2)cc1 was read as VDR inh 17%.
CC(=O)N1CCc2cc(S(=O)(=O)NC(Cc3ccccc3)C(=O)NCc3ccccc3Cl)ccc21 (centres undefined) was read as VDR inh -7%.
For CCc1ccccc1NS(=O)(=O)c1ccc2[nH]cc(C(=O)NCC3CCCO3)c(=O)c2c1 (centres undefined) the results were VDR inh 33%[activator].
For COc1ccccc1-n1ccnc(SCC(=O)NCc2ccccc2)c1=O the results were VDR inh -21%.
For COc1ccc(Br)cc1CNC(=O)C1CCN(S(=O)(=O)N2CCC(C)CC2)CC1 the results were VDR inh -10%.
For Cc1cccc(NC(=O)c2cc(S(=O)(=O)N3CCCCCC3)cn2C)c1C the results were VDR inh -2%.
For COc1ccc(N2CC(C(=O)NCCCN3CCOCC3)CC2=O)cc1 (centres undefined) the results were VDR inh -6%.
`CCCSc1nnc(CSc2ncccn2)n1C` gave VDR inh -9%.
Screening Cc1ccc(NC(=O)/C=N/OCC(=O)NCc2ccccc2Cl)cc1 returned VDR inh -5%.
`Cc1nc(Nc2cccc(O)c2)c2c3c(sc2n1)CCC3` gave VDR inh 7%.
`CCC(=O)N1c2ccccc2CC1C(=O)NCCc1ccc(OC)cc1OC` (centres undefined) gave VDR inh 9%.
Screening COc1ccc(NS(=O)(=O)c2c(C(=O)N3CCCCCC3)c(C)n(C)c2C)cc1OC returned VDR inh -17%.
`COc1cc(C2C3=C(CC(C)(C)CC3=O)Nc3c2c(=O)[nH]c(=O)n3Cc2ccccc2)ccc1O` (centres undefined) gave VDR inh -2%.
COc1ccc(C(=O)c2c(C(F)(F)F)oc3c2C(=O)c2ccccc2C3=O)cc1 was read as VDR inh 0%.
For CCOc1ccc(CCNC(=O)/C=C/c2ccco2)cc1OCC the results were VDR inh -5%.
CN(Cc1cc(=O)n2ccsc2n1)C1CCCCC1 was read as VDR inh -2%.
CCCCOc1ccc(N2C(=O)CC(N(CCc3ccccc3)C(=O)/C=C/C(=O)O)C2=O)cc1 (centres undefined) was read as VDR inh -16%.
Screening COc1ccc(N(CC(=O)N2CC=C(c3ccccc3)CC2)S(=O)(=O)c2c(C)noc2C)cc1 returned VDR inh 1%.
Screening Cc1cc(Cl)cc2c1NC(=O)[C@]21[C@@H]2C(=O)N(Cc3ccccc3)C(=O)[C@@H]2[C@@H]2CCCN21 returned VDR inh -5%.
O=C(CCCCCN1C(=O)c2ccccc2C1=O)NCc1ccco1 was read as VDR inh 3%.
CCN1CCCC1CNC(=O)Cn1cccc1C(=O)c1ccccc1 (centres undefined) was read as VDR inh 7%.

7 structures already listed, arranged by heavy-atom count, largest number first.
`COc1cc(C2C3=C(CC(C)(C)CC3=O)Nc3c2c(=O)[nH]c(=O)n3Cc2ccccc2)ccc1O` (centres undefined) gave VDR inh -2%.
CCCCOc1ccc(N2C(=O)CC(N(CCc3ccccc3)C(=O)/C=C/C(=O)O)C2=O)cc1 (centres undefined) was read as VDR inh -16%.
COc1ccc(C(=O)c2c(C(F)(F)F)oc3c2C(=O)c2ccccc2C3=O)cc1 was read as VDR inh 0%.
CCN1CCCC1CNC(=O)Cn1cccc1C(=O)c1ccccc1 (centres undefined) was read as VDR inh 7%.
For CCOc1ccc(CCNC(=O)/C=C/c2ccco2)cc1OCC the results were VDR inh -5%.
`Cc1nc(Nc2cccc(O)c2)c2c3c(sc2n1)CCC3` gave VDR inh 7%.
CN(Cc1cc(=O)n2ccsc2n1)C1CCCCC1 was read as VDR inh -2%.

Carrying on:
Screening CCc1cc2c(cc3c(=O)n(CC(=O)N4CCCCC4)ncn32)s1 returned VDR inh 7%.
CC1=CC(C)C2(CO)COC(c3cccnc3)C1C2C (centres undefined) was read as VDR inh -10%.
For COC(=O)c1ccc(C(=O)N(C)C2CCCN(Cc3ccccc3F)C2)nc1 (centres undefined) the results were VDR inh -8%.
CC(O)c1nc2ccccc2n1CCCCOc1ccccc1 (centres undefined) was read as VDR inh -6%.
Screening CCC(C)Oc1ccccc1C1CC(=O)NC2=C1C(=O)CCC2 (centres undefined) returned VDR inh 9%.
Screening O=C(Cn1cnc2c(nnn2Cc2ccc(Cl)cc2)c1=O)N1CCN(c2ccccc2)CC1 returned VDR inh 2%.
Screening O=C(NCCC1=CCCCC1)C1CCCN(S(=O)(=O)c2cnc[nH]2)C1 (centres undefined) returned VDR inh -13%.
Clc1ccccc1-c1nc(Nc2ccncc2)c2ccccc2n1 was read as VDR inh 35µM*.
`COC(=O)C(Cc1ccc(OC(=O)c2ccc(C(F)(F)F)cc2)cc1)N1Cc2ccccc2C1=O` (centres undefined) gave VDR inh -13%.
For CCOC(=O)C1CCCN(CC(=O)Nc2c(C(=O)OC)[nH]c3ccc(C)cc23)C1 (centres undefined) the results were VDR inh -3%.
Screening COc1ccc(CNc2ccc(C)cc2)cc1Br returned VDR inh 3%.
Screening O=C(CCN1CCCC1)c1cccs1 returned VDR inh inconclusive.
`CC(=O)c1ccc(NC(=O)C(C)O/N=C(\N)c2ccccc2)cc1` (centres undefined) gave VDR inh -9%.
N=c1c2c(ncn1CCCO)Oc1cc(O)ccc1C2c1ccccc1 (centres undefined) was read as VDR inh 12%.
COc1ccccc1CNC(=O)c1cc(-c2ccccc2)n(Cc2cc(C)no2)n1 was read as VDR inh -12%.
`Cc1c(NS(=O)(=O)c2cccc([N+](=O)[O-])c2)c(=O)n(-c2ccccc2)n1C` gave VDR inh -18%.
For Fc1ccc(NC(=S)Nc2cccc3ccccc23)cc1 the results were VDR inh -4%.
Screening Cc1cccc(N(C(=O)CNC(=O)c2ccco2)C(C(=O)NC2CCCC2)c2ccncc2)c1C (centres undefined) returned VDR inh -7%.
For Cc1cc(C)cc(NC(=O)CN2CCc3cc4c(cc3C2C)OCCCO4)c1 (centres undefined) the results were VDR inh 2%.
`O=C1/C(=C/Nc2cccc([N+](=O)[O-])c2)CCc2ccccc21` gave VDR inh -15%.
